# Screens deposited in PubChem BioAssay by several laboratories.
# CBX7 AlphaScr = blocks human CBX7 binding to H3K27me3 peptide; AID 1224903; normalised signal (fraction of DMSO) (no concentration beside the values); O95931; 1.1% of 66,000 active; AlphaScreen His6-CBX7 / biotin-H3K27me3 peptide binding; stronger effect = lower value; in the data active means normalised signal below about 0.5;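 further: 100 nL library stock added to about 20 µL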
# Target sequence (O95931 whole entry, looked up): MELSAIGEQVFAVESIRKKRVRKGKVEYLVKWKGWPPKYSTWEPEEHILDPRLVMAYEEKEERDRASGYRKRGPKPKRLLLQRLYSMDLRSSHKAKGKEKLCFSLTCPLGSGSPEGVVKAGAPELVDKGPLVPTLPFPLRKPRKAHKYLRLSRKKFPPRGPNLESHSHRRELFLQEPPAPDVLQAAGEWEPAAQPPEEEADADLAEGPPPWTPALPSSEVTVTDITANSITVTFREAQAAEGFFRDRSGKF
# CBX7 AlphaScr z-score = also measured in CBX7 AlphaScr; calls as there; z-score; measured here: z-score of CBX7 signal; some inactives read as strong as hits; reference of the scale not given here;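 same signal on another scale; lower means less binding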
# Numbers without * were called inactive; & = joins results of further samples.
# Every second line gives: CBX7 AlphaScr | CBX7 AlphaScr z-score
COc1ccc(-n2ccnc2SCC(=O)Nc2c(C)cc(C)cc2C)cc1
    1.1 | 1.1
Cc1cc(=O)n2nc(N3CCCC(C(=O)NCCc4ccccc4)C3)sc2n1 (centres undefined)
    1.1 | 0.76
Cc1ccc(-c2noc(COc3ccccc3Cl)n2)cc1
    1.1 | 2.2
CCOc1ccc(Cl)cc1C1CC(=O)Nc2cc3c(cc21)OCO3 (centres undefined)
    0.89 | -1.5
COc1ccc(OC)c2[nH]c(=O)c(CCNC(=O)COc3ccc(Cl)cc3)cc12
    1.1 | 2.4
c1ccc(SCCc2ccc3cc(-c4ccccc4)cn3c2)cc1
    0.99 | -0.33
COc1ccc(-n2nnc3c(=O)n(CC(=O)Nc4cccc(C)c4)cnc32)cc1
    1 | 0.95
CCN(C(=O)CCc1nc(-c2ccccc2F)no1)c1cccc(C(F)(F)F)c1
    1 | 0.91
CCCCN(C)c1nc(CC)c2c(c1C#N)CC(C)(C)OC2
    1.1 | 0.66
CCCOc1ccc(-c2nc(N3CCC(C)CC3)c3ccccc3n2)cc1
    1.3 | 0.37
CC1CCCN(C(=O)c2ccc3c(c2)C(=O)N(CCC2=CCCCC2)C3=O)C1 (centres undefined)
    1 | 0.86
COc1ccccc1OCCCn1c(C2CC(=O)N(c3ccc(C)cc3C)C2)nc2ccccc21 (centres undefined)
    0.88 | -2.3
O=C(NC1CCCC1)c1nn2c(C(F)(F)F)cc(-c3ccc(F)cc3)nc2c1Cl
    1.1 | 0.57
O=C(Nc1nnc(-c2ccccc2Cl)s1)c1ccc(Cl)cc1
    1 | 0.53
COc1cccc(C(=O)Nc2ccc3nc(N4CCN(C)CC4)cc(C)c3c2)c1
    1 | 0.19
O=C(Nc1ccc2oc(-c3cccnc3)nc2c1)c1cccc(Br)c1
    1 | 0.011
O=C(NCc1cccnc1)c1ccc2c(c1)N(Cc1ccccc1)C(=O)CS2
    1 | 2
CCOCCCNC(=O)CSCc1nc(-c2ccc(OC)c(OC)c2)oc1C
    0.82 | -2.3
COc1ccc(NC(=O)c2ccc3nc(C)c(C)nc3c2)cc1
    1.1&1.1 | 1.8&1.3
CCOc1ccccc1NC(=O)c1c(NCc2sccc2C)sc2c1CCCCC2
    0.66 | -4.7
COc1ccc(OC)c(NC(=O)c2sc3ncn(CC(=O)N4CCCCC4)c(=O)c3c2C)c1
    1.1 | 0.38
COC(=O)c1c(NC(=O)COc2ccc(Cl)cc2C)sc2c1CCCCC2
    1.1 | 0.081
NS(=O)(=O)c1ccc(CCNC(=O)Cn2c(=O)n(-c3ccccc3)c(=O)c3sccc32)cc1
    0.86 | -2.3
COc1ccccc1CNC(=O)c1cc(-c2ccc(Br)s2)nc2ccccc12
    1 | 1.6
Cc1cc(C)cc(OCC(=O)Nc2cc(-c3nc4ccccc4o3)ccc2C)c1
    1 | 0.058
Cc1cc(NC2CCCCC2)nc(NCc2ccccc2)n1
    1.3 | 2.7
Cc1ccc(Cn2nc(C)c(NC(=O)c3cc(-c4ccc(Cl)cc4)on3)c2C)cc1
    1 | 0.014
CC1=Nc2cc(C(=O)NCc3ccccc3Cl)ccc2Sc2ccc(C)cc21
    0.92 | -3.6
CCc1cc(-c2nc(N)ncc2-c2ccc(Br)cc2)c(O)cc1OC
    0.55 | -0.79
O=C(CN1CCN(Cc2cccc(Cl)c2)C1=O)NC1CCCCC1
    1 | 0.51

# Some of these compounds in order of the CBX7 AlphaScr z-score value, low to high:
molecule | CBX7 AlphaScr z-score
NS(=O)(=O)c1ccc(CCNC(=O)Cn2c(=O)n(-c3ccccc3)c(=O)c3sccc32)cc1 | -2.3
c1ccc(SCCc2ccc3cc(-c4ccccc4)cn3c2)cc1 | -0.33
CCN(C(=O)CCc1nc(-c2ccccc2F)no1)c1cccc(C(F)(F)F)c1 | 0.91

# Next results:
# Every second line gives: CBX7 AlphaScr | CBX7 AlphaScr z-score
Cc1nc2c(-c3ccc(F)cc3)c(C)nn2c(C)c1CCC(=O)NCCN1CCCC1
    1.1 | 2.2
O=C(Nc1ccc(-c2noc(-c3ccccc3Br)n2)cc1)c1ccncc1
    0.91 | -1.7
O=C(CCNC(=O)Cn1ccc2ccccc2c1=O)NCCCN1CCCCCC1
    1 | -0.082
CC1CCCCN1S(=O)(=O)c1ccc(C(=O)Nc2nc(-c3ccncc3)cs2)cc1 (centres undefined)
    1 | 1.2
Cc1[nH]c2ccccc2c1/C=C/c1nc2ccccc2c(=O)[nH]1
    0.84 | -1.9
COc1ccc(OC)c(NC(=O)c2cc3c(-c4ccc(OC)c(OC)c4)nn(C)c3s2)c1
    0.94 | -2.5
O=C(CCn1nc(-c2ccc(Cl)cc2)c2ccccc2c1=O)NCC1CCCO1 (centres undefined)
    1 | -0.1
Cc1nnc2ccc(N3CCC(c4ccccc4)C3)nn12 (centres undefined)
    0.98 | -0.61
Cc1ccc(Cl)cc1N1CCN(CCNC(=O)c2csc3c2CCCC3)CC1
    1 | 0.21
CNC(=O)c1cc2c(n(-c3ccc(OC)cc3)c1=O)CC(C)(C)CC2=O
    0.97 | -0.12
Cc1ccc(Nc2ncc(C(=O)N3CCC(Cc4ccccc4)CC3)c3ccccc23)cc1Cl
    1.2 | 6.6
Cc1ccnn1-c1nc(-c2ccc(F)cc2)cc(C(F)(F)F)n1
    1.1 | 2.9
COc1cccc(C(=O)Nc2c3c(nn2-c2ccc(C)cc2)CS(=O)(=O)C3)c1
    1.1 | 0.96
COc1cccc(C2CC(=O)Nc3cc(OC)cc(OC)c32)c1 (centres undefined)
    1.3 | 1.7
O=C(NCCCN1CCOCC1)C1CCC(=O)N1C1CCCCC1 (centres undefined)
    1 | 0.14
CC1CCCN(S(=O)(=O)c2ccc3[nH]c(=O)cc(C(=O)NCC4COc5ccccc5O4)c3c2)C1 (centres undefined)
    0.98 | -0.23
CCOc1ccccc1NC(=O)c1c(NCc2ccncc2)sc2c1CCC(C)C2 (centres undefined)
    0.83 | -8.7
c1ccc(CCc2nn3c(-c4ccccc4)nnc3s2)cc1
    1 | 0.3
Cc1cc(OCC(=O)Nc2c(C(=O)c3ccccc3)oc3ccccc23)ccc1Cl
    1.4 | 1.4
COc1ccc(N2C(=O)CC(N3CCN(Cc4ccccc4)CC3)C2=O)cc1 (centres undefined)
    0.95 | -1.7
O=C1c2ccccc2C(Nc2ccccc2F)N1c1ccccn1 (centres undefined)
    1 | -0.13
O=C(NCc1ccc(Cl)cc1)c1ccc(CNc2c(N3CCCCC3)c(=O)c2=O)cc1
    0.9 | -0.22
CCC(C)NC(=O)c1cnn2c(C)c(Cc3ccc(F)cc3)c(C)nc12 (centres undefined)
    1.1 | 0.6
Cc1cccc(N(C)S(=O)(=O)c2ccc3[nH]cc(C(=O)NCCC4=CCCCC4)c(=O)c3c2)c1
    0.92 | -1.1
CC(C)n1cnc2cc(NCc3nc4ccccc4n3C)ccc21
    0.87 | -1.7
COc1ccccc1N1CCN(C(=O)CC(C)CC2=NS(=O)(=O)c3ccccc3N2)CC1 (centres undefined)
    1.1 | 1.4
CCOC(=O)c1c(-c2ccc(C(C)C)cc2)csc1NC(=O)CN1CC(C)OC(C)C1 (centres undefined)
    0.97 | -0.65
COc1ccc(Cn2c(=O)c3cccnc3n(Cc3ccccc3F)c2=O)cc1
    1.1 | 0.93
Cc1cc2c(cc1C)NC(CC(=O)Nc1ccccc1C)C(=O)N2 (centres undefined)
    0.92 | -0.33
CCN(CC)CCCC(C)Nc1ccnc2ccc(-c3ccccc3)cc12 (centres undefined)
    1 | 0.32

# Compound profiles, from the list above. Order of values: CBX7 AlphaScr	CBX7 AlphaScr z-score
# Shown for Cc1cc(OCC(=O)Nc2c(C(=O)c3ccccc3)oc3ccccc23)ccc1Cl = 1.4	1.4
# Shown for COc1ccccc1N1CCN(C(=O)CC(C)CC2=NS(=O)(=O)c3ccccc3N2)CC1 (centres undefined) = 1.1	1.4
# Shown for O=C1c2ccccc2C(Nc2ccccc2F)N1c1ccccn1 (centres undefined) = 1	-0.13
# Shown for O=C(CCNC(=O)Cn1ccc2ccccc2c1=O)NCCCN1CCCCCC1 = 1	-0.082
# Shown for Cc1ccc(Nc2ncc(C(=O)N3CCC(Cc4ccccc4)CC3)c3ccccc23)cc1Cl = 1.2	6.6

# The results go on.
# Every second line gives: CBX7 AlphaScr | CBX7 AlphaScr z-score
Cc1ccc(Nc2nc(-c3ccc(S(=O)(=O)N4CCCC4)cc3)cs2)cc1C
    0.98 | -0.25
Fc1ccc(CSc2nc3ncccc3[nH]2)c(Cl)c1
    1.1 | 0.61
Cc1ccc2c(c1)-c1c(cnn1CC(=O)N1CCN(c3ccc(F)cc3)CC1)CO2
    0.99 | -0.35
CCOC(=O)c1c(NC(=O)NS(=O)(=O)c2ccccc2Cl)sc2c1CCCC2
    0.93 | -1
COc1ccc(CNC(=O)c2cnn3c(C)c(Cc4ccc(F)cc4Cl)c(C)nc23)cc1
    0.88 | -2.9
COc1ccc(Nc2c(-c3ccc(O)cc3)nc3cnccn23)cc1
    0.91 | -0.77
O=C(Nc1ccc(F)cc1)c1ccc(CNc2c(NC3CCCC3)c(=O)c2=O)cc1
    0.94 | -0.13
Cc1ccc(CCNC(=O)CCn2nc(-c3ccc(Cl)cc3)ccc2=O)cc1
    1.1 | 1.3
CCOc1ccc(OCC(=O)Nc2c(C(=O)Nc3cccc(F)c3)oc3ccccc23)cc1
    1 | 0.37
CN1CCN(Cc2c(NC(=O)c3ccccc3)sc3c2CCCC3)CC1
    0.96 | -0.98
COc1ccc(N2CCN(C(=O)C3CCCN(S(=O)(=O)c4c(C)noc4C)C3)CC2)cc1 (centres undefined)
    1.2 | 3.2
CCc1cccc2c(CCNC(=O)COc3ccc(F)cc3F)c(C)[nH]c12
    0.58 | -7.6
CN(C(=O)c1ccc2c(=O)n3c(nc2c1)CCCCC3)c1ccccc1Cl
    0.99 | -0.11
CCC(=O)NCCc1cc2ccc(OC)cc2[nH]c1=O
    1.1 | 2.1
COc1ccccc1N1CCN(C(=O)CCCC2=NS(=O)(=O)c3ccccc3N2)CC1
    1 | 1.3
CC(C)CCNC(=O)C1CCCCN1S(=O)(=O)c1ccc(F)cc1 (centres undefined)
    1 | 1
O=C(Nc1cccc(-c2nc3ccccc3o2)c1)C(F)(F)F
    0.97 | -0.82
COc1nnc(-c2ccc(N3CCOCC3)c(NC(=O)c3ccccc3)c2)c2ccccc12
    0.92 | -1.7
Cc1onc(-c2ccccc2Cl)c1C(=O)Nc1ccccc1C(C)C
    0.95 | -0.22
O=C(NCc1ccccc1Cl)C1CCN(S(=O)(=O)c2cccnc2)CC1
    1 | 0.055
COc1ccc(NC(=O)c2cc(-c3ccccc3O)on2)c(OC)c1
    1.1 | 0.12
Cc1ccc2nc(-c3cccnc3)c(Nc3ccccc3C)n2c1
    0.97 | -1.5
Cc1ccc(NC(=O)CCc2nc(-c3ccccc3F)no2)nc1
    0.9 | -1.5
Cc1ccc(C2=NN(CCC(=O)N3CCOCC3)C(=O)CC2)cc1
    1.1 | 1.2
Cc1ccc(S(=O)(=O)c2nc(-c3ccc(Cl)cc3Cl)oc2NCc2ccccc2)cc1
    1 | 0.59
COc1ccc(-c2cc(C(=O)Nc3ccccc3C(F)(F)F)no2)cc1
    1.2 | 1.3
CCOC(=O)c1c(C)n(C)c2ccc(OCC(O)CN3CCCCCC3)cc12 (centres undefined)
    1.1 | 2.4
Cc1ccc(-c2noc(CCC(=O)NCC3CCN(Cc4cccc(C)c4)CC3)n2)cc1
    0.91 | -1.4
CN(C)C(CNC(=O)Nc1cccc(Cl)c1)c1cccnc1 (centres undefined)
    1 | 0.24
Cc1ccc(-c2noc(CCC(=O)N3CCC(C(N)=O)CC3)n2)cc1
    1 | -0.0067
COc1ccc(CNC(=O)C2CCN(S(=O)(=O)c3c(C)noc3/C=C/c3cccs3)CC2)cc1
    1 | 0.56
Cc1nc2cccc(-c3cc(-c4cc(Cl)ccc4O)n[nH]3)c2o1
    0.94 | -0.22
CCOc1ccccc1-c1nc2c(C(C)(C)C)nn(C)c2c(=O)[nH]1
    1.1 | 0.79
Cc1oc(-c2cccc(Cl)c2)nc1CN1CCCC(C(=O)NCCCN(C)c2ccccc2)C1 (centres undefined)
    0.79 | -5.7
CCC1Oc2ccccc2N(CC(=O)NCc2cccs2)C1=O (centres undefined)
    0.81 | -2
CCOC(=O)c1c(NC(=O)Cc2ccc(OCC)c(OCC)c2)sc2c1CCCC2
    1.2 | 2.2
Cc1cc2cc(CCNC(=O)c3ccc(C(F)(F)F)cc3)c(=O)[nH]c2cc1C
    1 | 0.91
CC1CCN(CCCNC(=O)c2cn(C)c3ccc(S(=O)(=O)N4CCOCC4)cc3c2=O)CC1
    1.1 | 1.7
Cc1ccccc1OCCOc1cccc(-c2nc3sc4c(c3c(=O)[nH]2)CCCC4)c1
    1.1 | 1.6
CC1CCN(c2nnc(Cc3ccncc3)c3ccccc23)CC1
    1 | -0.061
O=C(Cc1ccc(NC2=NC3CS(=O)(=O)CC3S2)cc1)NCc1ccc(F)cc1 (centres undefined)
    0.93 | -0.79
CCCCCNC(=O)c1c[nH]c2ccc(S(=O)(=O)N(C)c3ccc(C)c(C)c3)cc2c1=O
    1 | 0.33
Cc1cccc(C)c1NC(=O)C1CCN(S(=O)(=O)c2ccc(F)cc2)CC1
    1.1 | 3
COc1ccc(OCc2nnc(NC(=O)Nc3ccc(F)cc3)s2)cc1
    0.91 | -0.32
Cc1ccc(S(=O)(=O)c2nc(-c3cccs3)oc2SCc2ccccc2Cl)cc1
    0.92 | -0.14
O=C(Nc1ccc(Cl)cc1)N1CCN(c2ccc3nncn3n2)CC1
    1.1 | 1.7
CCN(CC)C(=O)c1ccc2c(c1)N(Cc1cccc(Cl)c1)C(=O)c1ccccc1S2(=O)=O
    0.82 | -1.1
Cc1ccc(NC(=O)C2(NS(=O)(=O)c3cccc4cccnc34)CCCCC2)cc1
    1.2 | 1.4
Brc1cccc(-c2nnc3sc(CN4CCCCCC4)cn23)c1
    1.3 | 3.4
Cc1c(C(=O)NCc2ccc(F)cc2)sc2ncnc(N3CCOCC3)c12
    1 | 1
CCN(c1ccccc1)S(=O)(=O)c1ccc2c(c1)CCN2C(=O)C1CC1
    1 | 0.26

# An excerpt; rates above refer to the full screens.
